D2 ag: Beta-Arrestin HTS for Positive Allosteric Modulators of the Human D2 Dopamine Receptor: Agonists | D(2) dopamine receptor (Homo sapiens), P14416 | AID 624465, 2012 | DiscoveRx PathHunter D2 beta-arrestin, luminescence, 90 min; 100% = 57 uM dopamine signal | 360,000 tested, 0.084% active | activation, % (concentration not given with the values); in the data active = activation above about 40%; inconclusive = about 15% to 40%; inactive = below about 15%; further: compound concentration not given in the record; the text of the record calls up to 30% inactive
Target sequence (P14416 whole entry, looked up): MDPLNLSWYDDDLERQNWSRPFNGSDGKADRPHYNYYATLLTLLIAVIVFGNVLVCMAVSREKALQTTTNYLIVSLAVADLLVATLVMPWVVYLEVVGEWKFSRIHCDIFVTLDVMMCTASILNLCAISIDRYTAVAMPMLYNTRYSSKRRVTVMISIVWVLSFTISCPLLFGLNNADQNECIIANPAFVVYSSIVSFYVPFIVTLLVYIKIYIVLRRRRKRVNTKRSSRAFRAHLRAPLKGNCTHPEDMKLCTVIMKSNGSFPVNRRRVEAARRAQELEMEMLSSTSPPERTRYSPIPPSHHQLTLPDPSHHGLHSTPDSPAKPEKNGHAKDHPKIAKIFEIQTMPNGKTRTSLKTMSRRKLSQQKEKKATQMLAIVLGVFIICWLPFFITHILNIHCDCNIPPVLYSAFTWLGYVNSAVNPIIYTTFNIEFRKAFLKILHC
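Agonist mode: compounds alone added to overnight-plated D2 PathHunter cells for 90 min at 37 C, with 57 uM final dopamine (EC100) defining full response. Beta-arrestin recruitment detected by chemiluminescent reagent, read after 1 h at ambient temperature.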
Menin-MLL FL inh: qHTS Assay for Inhibitors Targeting the Menin-MLL Interaction in MLL Related Leukemias: Competition With Fluorescein Labeled MLL-derived Peptide. Fluorescence polarization, fluorescein-MLL peptide displacement from menin. FP activity change, % at 61.4 µM. 290,000 tested, under 10 active; inconclusive = falling polarisation curve, or a change in total fluorescence; inactive = total fluorescence flat and polarisation flat or rising; no compound was filed as active; the % refers to the polarisation; negative = inhibition;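 further: % of control where 0% means no effect; inhibitors lower the polarisation; unlabelled MLL peptide was the positive control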
gsp antag: qHTS for Antagonists of gsp, the Etiologic Mutation Responsible for Fibrous Dysplasia/McCune-Albright Syndrome: qHTS. 340,000 tested, 0.4% active. gsp-mutant cells, cAMP HTRF, 30 min; control for the full effect not named in the record. Potency, µM (titrated, usually from 76.9 µM), for inactives: at the highest dose activity change, negative = inhibition, most hits filed as inhibitors. AID 624288, 2012; active = falling curve of any shape with a large fitted effect; inconclusive = falling curve, mostly with a smaller effect; inactive = flat or rising curve; cell line not stated here;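 further: intracellular cAMP measured with PDE inhibitor Ro 20-1724 present during compound exposure; potency means the concentration at half of the fitted maximal effect; on the % scale 0 is the no-effect control and ±100 the full control effect; nearly all actives have a fitted effect of over 65% in size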
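G418-selected cells were plated in DMEM/10% FBS for 16-24 h at 37C, then treated with compounds plus the PDE inhibitor […] (300 uM solution added) for 30 min at 37C. Intracellular cAMP was measured by HTRF after 30 min lysis at room temperature.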
PINK1 expr mod: A Quantitative High throughput Screen to Identify Chemical Modulators of PINK1 Expression. PINK1 immunofluorescence, high-content cytometry, 24 h. Potency, µM (series often up to 76.6 µM), without a hit: at the highest dose activation (PINK1 increase), actives largely listed as activators. 410,000 tested, 0.2% active. AID 624263, 2012; active = well fitted activation curve with a large enough effect; inconclusive = small, poorly fitted or top-dose-only effect; inactive = flat fitted curve, though single readings scatter; cell line not stated here;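 further: potency means the concentration at half of the fitted maximal effect; % of control where 0% means no effect; nearly all actives have a fitted effect of over 65% in size; a mitochondrial uncoupler was the plate control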
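PINK1 protein level read as immunofluorescence by microplate cytometer in a fixed, stained stable cell line after 24 h exposure to five compound concentrations, with CCCP as control.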
gsp agonist: qHTS for Agonist of gsp, the Etiologic Mutation Responsible for Fibrous Dysplasia/McCune-Albright Syndrome: qHTS; gsp mutant cells, cAMP HTRF, 30 min; control for the full effect not named in the record; Potency, µM (highest dose often 76.9 µM), inactives show at the highest dose activation (cAMP increase), most hits filed as activators; 340,000 tested, 0.13% active; active = well fitted activation curve with a large enough effect; inconclusive = small, poorly fitted or top-dose-only effect, or another doubt; inactive = no such curve, though single readings can be large or run the other way; cell line not stated here;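 further: phosphodiesterase inhibitor Ro 20-1724 added with compounds to block cAMP breakdown; potency means the concentration at half of the fitted maximal effect; nearly all actives have a fitted effect of over 60% in size; about a fifth of the inactives were tested at one dose only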
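Cells stably selected in G418 were plated at 2000/well, grown 16-24 hr, then given compounds in DMSO with the PDE inhibitor […] (300 uM solution added) for 30 min at 37C; cAMP was read by HTRF.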
ClpP mod: qHTS Assay for Activators of ClpP. purified B. subtilis ClpP, FRET peptide cleavage, 20 min. Potency, µM (titrated, usually from 57.5 µM), for inactives: at the highest dose activity change, negative = active. ATP-dependent Clp protease proteolytic subunit (Bacillus subtilis (strain 168)), P80244. 340,000 tested, 1.9% active. AID 651965, 2013; active = well fitted falling curve with a large enough effect; inconclusive = small, poorly fitted or top-dose-only effect; inactive = no such curve, though single readings can be large or run the other way; further: potency means the concentration at half of the fitted maximal effect; the source files actives as falling curves though it sought activators and does not explain the sign; nearly all actives have a fitted effect of over 65% in size; many hits overshoot -100%
Target sequence (P80244 whole entry, looked up): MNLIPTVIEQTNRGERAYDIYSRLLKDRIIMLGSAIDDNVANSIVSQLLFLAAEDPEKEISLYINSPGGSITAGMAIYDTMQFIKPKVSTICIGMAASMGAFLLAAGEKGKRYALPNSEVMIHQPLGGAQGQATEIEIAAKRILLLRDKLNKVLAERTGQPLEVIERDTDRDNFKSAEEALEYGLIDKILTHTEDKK
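Purified B. subtilis ClpP, 10 microg/mL final in Tris/HCl pH8 with KCl, BSA, glycerol and Tween-20, cleaved an Abz/nitrotyrosine-quenched decapeptide. Fluorescence (ex 320, em 430) was read at 0 and 20 min at room temperature. Delta was normalized to 5.8 microM ADEP and DMSO/no-enzyme controls.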
Sfp inh: qHTS Assay for Inhibitors of Bacillus subtilis Sfp phosphopantetheinyl transferase (PPTase). Potency, µM, for the others: max response, negative = inhibition, most hits filed as inhibitors. 4'-phosphopantetheinyl transferase ffp (Bacillus subtilis), Q9F4F7. Biochemical Sfp PPTase activity, qHTS. 310,000 tested, 3.5% active. AID 1490, 2009; active means well fitted inhibition curve with a large enough effect; inconclusive means small, poorly fitted or top-dose-only effect, or another doubt; inactive means no such curve, though single readings can be large or run the other way;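 further: the enzyme is Sfp with the accession as filed and its product quenches rhodamine fluorescence; potency means the concentration at half of the fitted maximal effect; 0% = enzyme reaction without inhibitor and -100% = no enzyme wells; top concentration of the series not given in the record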
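Compounds were incubated with enzyme (final 15 nM) for 15 min at room temperature before substrate addition started the reaction. Fluorescence at 525 nm excitation, 598 nm emission was recorded immediately and after 30 minutes.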
* marks the source's active call; other numbers are inactive results; ? = inconclusive; nt = not tested or not shown; [ ] = another dose, or the depositor's remark. Rows were taken by chance; 5.1% or so of the library scored in one or more.

canonical_smiles	D2 ag	Menin-MLL FL inh	gsp antag	PINK1 expr mod	gsp agonist	ClpP mod	Sfp inh
C=C(C)n1c(=O)n(Cc2ccc(C)cc2)c2ccccc21	5.9	-2.7	0.3%	2.6%	-2.4%	-4.2%	6.0%
Cc1ccc(OC(C)C(=O)N2CCCc3ccccc32)cc1 (centres undefined)	-3.4	1.0	5.9%	4.6%[38.3 µM]	13.4%	-2.4%	7.9%
Cc1ccc(C2(C)NC(=O)N(CC(=O)N3CCN(S(=O)(=O)c4ccccc4[N+](=O)[O-])CC3)C2=O)cc1 (centres undefined)	6.3	nt	-10.5%	1.8%	8.1%	2.0%	nt
Cc1cccc(N(CC(=O)NCc2ccco2)C(=O)CCC(=O)Nc2ccccn2)c1C	-1.8	-1.7	0.7%	2.4%	12.2%	nt	12.7%
Cc1ccc(SCc2ccc(C(=O)N3CCCCC3)cc2)cc1	-2.1	4.8	-3.3%	-0.5%	33.0%	-0.3%	-0.3%
CC(=O)Nc1ccc(-c2cc(NC(C)=O)n(-c3ccccc3)n2)cc1	-1.0	-1.4	8.6%	2.7%	-4.3%	-3.5%	3.7%
O=C1Nc2ccccc2/C1=C/c1ccccc1F	-1.2	0.0	12.7%	8.9%	6.4%	nt	-11.2%
Cc1sc2nc(CSc3nnc(Cc4cccs4)n3C3CCCCC3)[nH]c(=O)c2c1C	-2.6	18.7	-5.3%	-1.3%	-27.9%	-2.5%	-16.8%
COc1ccc(S(=O)(=O)N2CCc3ccccc32)cc1C(=O)NCCc1ccc(S(N)(=O)=O)cc1	14.6	nt	-12.7%	7.9%	9.6%	-3.8%	nt
C=CCn1c(SCC(=O)N2CCOCC2)nc(O)c(Cc2ccccc2)c1=O	-1.7	-2.5	0.2%	-0.7%	-48.2%[inhibitor]	3.5%	6.2%
COc1ccc(/C=C2\N=C(C)OC2=O)cc1[N+](=O)[O-]	3.4	-1.4	10.2%	-0.2%	-4.7%[15.4 µM]	nt	10.8%
Cc1ccccc1S(=O)(=O)Cc1ccc(C(=O)NCc2cccs2)o1	-1.2	-2.7	-9.6%	-0.2%	-23.1%	-1.9%	21.0%
Cc1c(C(=O)NCC(C)(C)N2CCOCC2)oc2ccccc12	-1.1	nt	7.4%	0.3%	5.7%	-1.0%	nt
CC(C)CC1Nc2ncnc(N3CCN(c4ccccc4)CC3)c2N(Cc2ccc(Cl)cc2)C1=O (centres undefined)	-3.5	nt	4.2%	0.7%	-28.6%	-0.7%	nt
CC(C)Cc1csc(=S)[nH]1	-1.3	nt	5.1%	1.1%	14.4%	nt	nt
O=C(/C=C/c1c(Cl)cccc1Cl)Nc1ccncc1	2.2	-0.7	-15.4%	-0.4%	-0.2%	-2.6%	13.3%
COc1ccc(C2Nc3ccccc3C(=O)N2NC(=O)c2ccccc2)cc1OC (centres undefined)	2.5	-0.8	-0.4%	-0.8%	-50.1%[inhibitor]	?	20.2%
COc1ccc(NC(=O)C2CCN(S(C)(=O)=O)CC2)cc1	0.0	1.4	2.5%	1.4%[38.3 µM]	-48.2%[inhibitor]	-0.3%	21.4%
COc1ccc(/C=N/NS(=O)(=O)c2ccccc2)cc1OS(=O)(=O)c1ccccc1	-9.0	-0.5	-4.8%	0.9%	-13.6%	0.8%	6.4%
CCOC(=O)c1c(NC(C)=O)sc(/C(C)=N/Nc2ccc(C(=O)O)cc2)c1C	9.5	-0.6	-16.2%	1.8%	23.7%	nt	-6.9%
Clc1ccc(COc2ccccc2CNCc2cccnc2)cc1	-1.6	1.2	7.1%	-6.0%[38.3 µM]	-7.5%	-0.3%	-1.6%
CN1CCN(C(CNS(=O)(=O)c2ccc(Br)cc2)c2ccc3c(c2)OCO3)CC1 (centres undefined)	-6.7	nt	13.1%	0.5%	-3.6%	-3.8%	nt
COc1ccc(C(=O)Nc2ccc3ccccc3c2)cc1OC	1.6	-0.6	2.8%	2.5%	8.4%[15.4 µM]	0.0%	9.8%
CCCCCCCCCCCCCCC(O)C[N+](C)(CCO)CCO (centres undefined)	-2.1	nt	4.0%	-6.8%	4.2%	-8.4%	nt
Cc1ccc(-n2nnnc2-c2cccnc2)cc1	-1.8	6.1	2.7%	-1.0%	0.4%	0.2%	3.5%
O=C(Nc1nc2c(s1)CCCC2)c1ccc(N2C(=O)CCC2=O)cc1	-0.4	nt	-2.0%	1.7%	-0.5%[15.4 µM]	1.4%	10.2%
Cc1ccc(C(=O)NNC(=O)c2cccc(Br)c2)cc1	0.2	3.4	6.1%	-1.6%	?	nt	12.9%
CC1=NC(C)(C)Cc2c(C)cccc21	-0.5	0.4	4.7%	-3.0%	-2.7%	nt	-3.3%
Cc1ccc(F)cc1NC(=O)CN1C(=O)NC2(CCCc3ccccc32)C1=O (centres undefined)	-6.6	nt	9.3%	-0.1%	3.2%	2.3%	nt
O=C(CCNC(=O)C1CCN(S(=O)(=O)c2ccccc2)CC1)NCc1ccccc1Cl	-5.3	nt	-1.2%	-0.4%	44.4%	-0.5%	8.7%

Reprinted at random: 2 compounds from above.
canonical_smiles	D2 ag	Menin-MLL FL inh	gsp antag	PINK1 expr mod	gsp agonist	ClpP mod	Sfp inh
C=C(C)n1c(=O)n(Cc2ccc(C)cc2)c2ccccc21	5.9	-2.7	0.3%	2.6%	-2.4%	-4.2%	6.0%
CN1CCN(C(CNS(=O)(=O)c2ccc(Br)cc2)c2ccc3c(c2)OCO3)CC1 (centres undefined)	-6.7	nt	13.1%	0.5%	-3.6%	-3.8%	nt

Additional records.
canonical_smiles	D2 ag	Menin-MLL FL inh	gsp antag	PINK1 expr mod	gsp agonist	ClpP mod	Sfp inh
COc1ccc(C(N)c2csc(NC(=O)Nc3cccc(C(F)(F)F)c3)n2)cc1 (centres undefined)	10.8	nt	nt	-1.4%	nt	0.8%	nt
CCCN1C(=O)/C(=C/c2ccc3c(c2)OCO3)NC1=S	-6.6	2.7	-2.1%	1.2%	-1.2%	-1.7%	12.3%
CN1CCN(C(=O)C2CCC(=O)N(CCc3cccc(F)c3)C2)CC1 (centres undefined)	-2.8	nt	13.2%	0.3%	?	0.8%	13.5%
COc1ncc2nc(-c3ccc(Cl)cc3)c(=O)n(CCC#N)c2n1	nt	0.0	nt	0.8%	nt	nt	?
COc1ccc(NS(=O)(=O)c2ccc(C)c(C(=O)NCCCN3CCCC3=O)c2)cc1	-1.1	nt	7.1%	0.2%	-1.4%	-4.6%	nt
COc1ccc(S(=O)(=O)N(C)[C@H]2C[C@H]3c4cc(-c5ccccc5)ccc4CCN3C(=O)[C@H]2[C@H](C)O)cc1	-3.2	nt	nt	-0.6%	7.9%	-12.5%	nt
CC(=O)Nc1ccc2nc(CN3CCN(CC=C(C)C)C(CCO)C3)ccc2c1 (centres undefined)	0.6	0.7	5.2%	8.9%	-2.2%[15.4 µM]	nt	-4.3%
COc1ccc(C(=O)NCCc2ccc(S(N)(=O)=O)cc2)cc1OC	-1.8	0.5	9.0%	-1.5%	3.5%	-11.9%	2.8%
N/C(=N\O)c1ccc(N2CCN(c3ncccc3C(F)(F)F)CC2)nc1	2.7	2.9	-1.3%	-0.8%	-1.0%[15.4 µM]	nt	-2.4%
O=C(CNC(=O)c1ccccc1F)OCC(=O)N1CCCc2ccccc21	-0.9	-1.5	-3.3%	-0.2%	-10.2%[15.4 µM]	0.2%	24.1%
CC[C@@H](C)[C@@H](C(=O)N1CCN(C(=O)OC(C)(C)C)CC1)n1cc(CCCCNC(=O)OC(C)(C)C)nn1	9.2	0.4	-22.1%	1.8%	nt	0.1%	8.4%
Cc1ccc(N2CC(C(=O)N3CCC(C(=O)Nc4nncs4)CC3)CC2=O)cc1 (centres undefined)	-4.1	2.3	4.6%	-2.5%	-5.8%	nt	12.3%
O=C(Cc1nc2ccccc2[nH]1)N/N=C/c1ccccc1	-0.2	4.5	-1.5%	1.4%	-8.7%	-9.9%	2.7%
O=C(NC(=O)c1ccc(Cl)cc1)OC1CCCCC1	2.9	-0.7	15.2%	-4.2%	-15.4%	1.3%	-18.6%
CCOC(=O)c1sc2nc(C)nc(SC(C)C(=O)N(C)c3ccccc3)c2c1C (centres undefined)	-1.2	nt	?	9.1%	?	-12.1%	nt
CCOC(=O)NC(NCc1ccccc1)(C(F)(F)F)C(F)(F)F	-0.7	1.0	3.9%	?	-6.7%[15.4 µM]	1.6%	14.5%
NS(=O)(=O)c1ccc(CCNC(=O)CCc2nc3ccccc3s2)cc1	-2.0	nt	4.5%	1.0%	-3.3%[15.4 µM]	nt	9.3%
CNCCOc1ccc(Cl)c(Cl)c1	-3.7	-2.1	11.8%	-2.0%	-7.5%	nt	-19.0%

As entered above:
Menin-MLL FL inh result of `CNCCOc1ccc(Cl)c(Cl)c1` → -2.1
Sfp inh result of `NS(=O)(=O)c1ccc(CCNC(=O)CCc2nc3ccccc3s2)cc1` → 9.3%
Sfp inh result of `Cc1ccc(N2CC(C(=O)N3CCC(C(=O)Nc4nncs4)CC3)CC2=O)cc1` (centres undefined) → 12.3%
Menin-MLL FL inh result of `COc1ccc(C(=O)NCCc2ccc(S(N)(=O)=O)cc2)cc1OC` → 0.5
Sfp inh result of `CC(=O)Nc1ccc2nc(CN3CCN(CC=C(C)C)C(CCO)C3)ccc2c1` (centres undefined) → -4.3%
gsp agonist result of `O=C(CNC(=O)c1ccccc1F)OCC(=O)N1CCCc2ccccc21` → -10.2%[15.4 µM]
